# Source: PubChem BioAssay
# PKD1 inh: inhibitors of human PKD1 kinase; 200,000 tested, 0.056% active; inhibition, %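 (about 10 µM by stock and volumes)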; PKD1 kinase fluorescence polarization assay; Q15139;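 active = inhibition of 50% or more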;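 note: controls were vehicle for no effect and a reference inhibitor for full effect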
# Target sequence (Q15139 whole entry, looked up): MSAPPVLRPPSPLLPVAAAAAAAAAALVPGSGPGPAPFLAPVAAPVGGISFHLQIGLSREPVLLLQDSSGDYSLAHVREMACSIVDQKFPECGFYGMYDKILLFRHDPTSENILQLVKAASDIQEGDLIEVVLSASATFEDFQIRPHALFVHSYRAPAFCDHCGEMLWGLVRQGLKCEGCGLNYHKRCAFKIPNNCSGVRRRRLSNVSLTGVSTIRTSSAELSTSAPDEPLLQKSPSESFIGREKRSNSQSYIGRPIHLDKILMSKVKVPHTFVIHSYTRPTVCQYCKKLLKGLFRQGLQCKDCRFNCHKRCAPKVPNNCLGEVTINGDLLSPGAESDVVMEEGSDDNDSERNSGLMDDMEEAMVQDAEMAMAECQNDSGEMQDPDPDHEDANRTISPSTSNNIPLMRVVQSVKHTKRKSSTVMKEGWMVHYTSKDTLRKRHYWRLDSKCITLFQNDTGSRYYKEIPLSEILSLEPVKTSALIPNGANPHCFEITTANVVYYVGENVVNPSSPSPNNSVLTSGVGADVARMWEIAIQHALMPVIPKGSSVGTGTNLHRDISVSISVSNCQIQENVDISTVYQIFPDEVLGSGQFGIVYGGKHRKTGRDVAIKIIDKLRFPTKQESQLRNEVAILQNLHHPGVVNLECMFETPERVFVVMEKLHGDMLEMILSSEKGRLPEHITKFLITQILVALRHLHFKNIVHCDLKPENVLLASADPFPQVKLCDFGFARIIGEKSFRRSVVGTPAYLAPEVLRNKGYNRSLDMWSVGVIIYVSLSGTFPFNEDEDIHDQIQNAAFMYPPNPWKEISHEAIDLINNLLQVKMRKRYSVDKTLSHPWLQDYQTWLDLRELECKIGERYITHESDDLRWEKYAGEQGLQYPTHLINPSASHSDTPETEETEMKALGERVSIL
# HSV replic up: increases HSV replication in cells. AID 1956. HSV replication augmentation in cells, fold increase. 220,000 tested, 0.005% active. maximum fold increase;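 active = peak rise of 1.5-fold or more in the series; tested in PC3 cells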;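 note: first round at 10 µM; read as green reporter fluorescence; hits show the peak of a series up to 25 µM; 1 = signal of infected wells without compound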
# Insulin prom inh: TRM-6 insulin promoter activity inhibition; TRM-6 cells (human fetal islet line), insulin promoter-eGFP reporter, imaging; reporter expression induced with tamoxifen; inhibition, % at 2 µM; 130,000 tested, 0.9% active;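 active = inhibition above the mean plus 3 SD, with well images judged a real hit on visual review, cut at about 60% in these data, passing the limit was not always enough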
# RGS16-Gao: modulates binding between human RGS16 and Galphao; O15492+P09471; 220,000 tested, 0.38% active; AID 1441; binding response (% of control), % at 10 µM; bead-based flow cytometry RGS16-Galphao binding, fluorescence; actives lie on both sides;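 active = below 25% or above 175%, edge rows of some plates excepted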;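 note: Galphao activated by GDP with aluminum fluoride before binding; 100% = wells without compound and 0% = beads without RGS; some results beyond the cut were filed as inactive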
# GALR2 agonist: GALR2 (human) receptor agonism. O43603. AID 803. GALR2-expressing cells, agonist activation read-out. 140,000 tested, 0.48% active. activation, %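 (tested at 5 µM)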;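 active = above mean plus 3 SD of all compounds, about 5% in these data, not always enough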;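 note: 0% = vehicle buffer wells and 100% = reference agonist at full effect; tested in CHO reporter cells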
# Insulin prom inh cell count: second read-out of Insulin prom inh, no call of its own (marks repeat the call); normalized cell count, %; measured here: cell count, toxicity; reference of the scale not given here;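 cells exposed to compound for 48 h; stained nuclei by imaging scaled within each plate; lower means fewer cells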
# HSV replic up primary fold: second read-out of HSV replic up, no call of its own (marks repeat the call); fold increase; compound at 10 µM; measured here: primary screen fold increase 10 uM; tested in PC3 cells;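 GFP signal in the first replicate; 1 = infected wells without compound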
# An asterisk follows results filed as active; i = inactive; · = not tested or not shown.
# Order of values: PKD1 inh	HSV replic up	HSV replic up primary fold	Insulin prom inh	Insulin prom inh cell count	RGS16-Gao	GALR2 agonist
CCc1ccc(Cn2nnc(C(=O)Nc3cccc(C)c3)c2N)cc1
  4	i	0.86	·	·	99	-1.9
O=C(Cc1ccc(Br)cc1)Nc1ccc(S(=O)(=O)NCC2CCCO2)cc1 (stereo unspecified)
  0	i	0.82	·	·	105	·
O=C(NNC(=S)Nc1ccc(Br)cc1Cl)c1ccco1
  0	·	·	·	·	96	-0.6
CCN(CC)c1ccc(S(=O)(=O)N2CCOCC2)cc1NS(C)(=O)=O
  -5	i	0.91	·	·	99	·
Cc1ccccc1C(=O)Nc1ccc(Cl)cn1
  -2	i	1.1	12	77	97	-2.2
COc1ccccc1CNC(=O)c1cccc(NC(=O)c2ccccc2)c1
  0	i	0.88	43	124	97	·
CN1C(=O)S/C(=C\c2ccc(-n3cncn3)cc2)C1=O
  10	i	1.2	·	·	99	·
Cc1ccc(-c2nnn(CCC(=O)Nc3ccc4c(c3)OCO4)n2)cc1
  -3	i	1	-7	138	101	-1.0
C=CCN1C(=O)/C(=C2/Sc3ccc(OC)cc3N2C)SC1=Nc1ccc(OC)cc1
  -1	i	0.92	·	·	100	·
O=C(O)Cc1ccc(-n2cccc2)cc1
  -6	i	1	9	141	105	·
COc1ccc(OC)c2c(C)cc(N3CCN(C(=O)c4ccc(C)cc4)CC3)nc12
  3	i	1	27	94	101	·
CC1=N/C(=C/c2ccco2)C(=O)O1
  4	i	1.1	0	117	94	·
O=C(O)c1cccc(NC(=S)NC(=O)C(c2ccccc2)c2ccccc2)c1
  -17	i	0.99	26	69	102	8.2
COc1ccc(-c2nn(-c3ccccc3)cc2C(=O)N2c3ccc(C)cc3C3CN(C)CCC32)cc1 (stereo unspecified)
  -1	i	0.8	·	·	102	·
CCn1c(SCC(=O)NCc2ccco2)nnc1-c1cccs1
  -2	i	1.1	38	121	103	-1.3

# Following part.
# Order of values: PKD1 inh	HSV replic up	HSV replic up primary fold	Insulin prom inh	Insulin prom inh cell count	RGS16-Gao	GALR2 agonist
CC(C)(C)[Si](OCC[C@@H]1C[C@@]1(C)[C@@H](NP(=O)(c1ccccc1)c1ccccc1)c1ccccc1)(c1ccccc1)c1ccccc1
  -8	i	1.1	30	83	106	-2.2
COc1ccc(O)c(-c2cc(-c3ccccc3[N+](=O)[O-])[nH]n2)c1
  1	i	1	-7	148	104	0.1
COc1ccc2[nH]c(=O)c(-c3noc(-c4ccc(F)cc4)n3)cc2c1
  -11	i	0.94	19	85	102	3.1
Cc1ccc(NC(=O)[C@@H](NC(=O)c2cccc(S(=O)(=O)N3CCOCC3)c2)C(C)C)cc1C
  -8	i	0.81	14	102	111	-0.5
CSc1c(SCc2ccccc2)cnn(-c2ccccc2)c1=O
  -9	i	0.96	29	117	102	-0.2
COc1ccc(Nc2cc(=O)n(C3CCCCC3)c(=O)[nH]2)c(OC)c1
  -5	i	0.88	36	86	88	-1.7
Cc1ccc(S(=O)(=O)N2C(=O)CCC2C(=O)NCc2ccco2)cc1 (stereo unspecified)
  -8	i	1.1	11	127	101	-2.1
O=C(CCCc1c[nH]c2ccccc12)N1CCOCC1
  1	i	0.96	-8	140	99	-0.9
COC(=O)CC1=NN(c2nc3ccccc3s2)C(=O)/C1=C/N(C)C
  0	i	1	33	100	100	·
Cc1ccc(C2OCC3(CO)COC(c4ccc(C)cc4)N23)cc1 (stereo unspecified)
  -2	i	0.81	·	·	200	-3.8
O=C(C/C=N\O)Nc1ccc(Oc2ccccc2)cc1
  3	i	1.1	·	·	97	·
Cc1ccc(NC(=O)NC(=O)CSc2nnc(-c3ccc(OC(F)F)cc3)n2N)c(C)c1
  -1	i	0.96	·	·	99	0.2
NC(=O)COc1ccc(-c2noc(COc3ccccc3[N+](=O)[O-])n2)cc1
  -3	i	0.94	42	107	104	·
COc1ccc(C(C)=O)cc1CN1C(=O)NC2(CCCCCCC2)C1=O
  3	i	0.86	·	·	104	·
CCOP(=O)(OCC)c1nc(-c2ccccc2Cl)oc1N1CCOCC1
  5	i	0.92	-10	166	104	·

# Remaining list, next part.
# Order of values: PKD1 inh	HSV replic up	HSV replic up primary fold	Insulin prom inh	Insulin prom inh cell count	RGS16-Gao	GALR2 agonist
CCN(C(=O)CN1CCOCC1)C1(C)C(=O)c2ccccc2C1=O
  1	i	1.1	8	131	98	-2.0
CCc1nnc(NC(=O)CSc2ccc(-c3nc4ccc(C)cc4[nH]3)cn2)s1
  2	i	0.95	·	·	96	1.0
O=C(O)c1cccc(S(=O)(=O)NCCC(c2ccccc2)c2ccccc2)c1
  -3	i	0.96	·	·	105	·
Cn1nc2c3ccccc3n(Cc3ccc(F)cc3)c2nc1=S
  ·	i	0.97	·	·	101	·
O=C(c1cc(COc2ccc3ncccc3c2)on1)N1CCC(O)CC1
  -7	·	·	·	·	101	·
N=C1C(c2nc(-c3ccc(Cl)cc3)cs2)=C(O)CN1CCCN1CCOCC1
  3	i	0.99	·	·	107	0.2
CN(C)/C=C/C(=O)c1ccc(Oc2ncccn2)cc1
  0	i	1.2	-7	103	95	·
CCN(CC)CCOC(=O)C12CC3CC(CC(C3)C1)C2
  0	i	0.98	9	86	99	-0.8
CCOc1c(Cl)cc(C2NC(=O)NC(C)=C2C(=O)NCc2ccccc2)cc1OC (stereo unspecified)
  -2	i	0.79	7	123	101	-1.2
O=C(COC(=O)C1CCN(S(=O)(=O)c2ccccc2)CC1)NC(=O)c1ccc(OC(F)F)cc1
  -6	i	0.96	16	125	100	-0.3
Clc1ccc(OCCSc2ncccn2)c2ccccc12
  5	i	0.97	-3	63	103	-2.5
CN(CC(=O)NCc1ccccc1Cl)CC(=O)Nc1cccc(F)c1
  -2	i	0.86	-14	65	101	·
Cc1[nH]c2ccccc2c1C(=O)NS(=O)(=O)Nc1ccccc1
  -2	i	0.91	·	·	100	·
O=C(Nc1nnc(C2CC2)s1)c1cc2c(s1)CCCCCC2
  8	i	0.93	-27	139	111	-0.2
COc1ccc(NC(=O)c2ccccc2SC)c(OC)c1
  -2	i	0.87	·	·	95	·

# Further entries
# Order of values: PKD1 inh	HSV replic up	HSV replic up primary fold	Insulin prom inh	Insulin prom inh cell count	RGS16-Gao	GALR2 agonist
CCOC(=O)C1C(=O)C=C(c2ccc(C)cc2)CC1c1ccco1 (stereo unspecified)
  -3	i	1	-32	20	104	-1.0
C=CCn1c(CSCc2ccc(C)cc2)nnc1SCC(=O)NCc1ccccc1
  -7	i	0.95	-38	133	102	-0.2
Cc1ccc(C2CC(c3cccs3)=NN2C(=O)c2ccc(Br)o2)cc1 (stereo unspecified)
  0	i	0.95	-4	148	105	0.1
CCOC(=O)c1sc(C)c2c1NC(C)(c1ccccc1)NC2=O (stereo unspecified)
  -2	i	0.92	-21	108	101	0.1
Cc1cc(=O)n2[nH]c(-c3sccc3-n3c(C)ccc3C)cc2n1
  -6	i	0.93	·	·	44	·
CC(=O)c1c(C)[nH]c(C(=O)OCC(=O)Nc2ccc([N+](=O)[O-])cc2Cl)c1C
  -5	i	0.95	-27	62	96	0.1
CC(O)(CS(=O)(=O)Cc1ccccc1Cl)C(=O)Nc1cccc(C(F)(F)F)c1 (stereo unspecified)
  16	i	1.1	-75	86	100	-1.8
CCCCCCCCCOC(=O)C(CC(=O)O)N1CCOCC1 (stereo unspecified)
  -1	i	0.92	68*	36*	103	-2.5
COc1ccc(C2CC(c3ccc(Cl)cc3Cl)Nc3nc(N)nn32)cc1OC (stereo unspecified)
  -5	i	0.91	·	·	109	0.1
Cc1ccc(C(C(=O)NC2CCCC2)N(Cc2ccco2)C(=O)CCC(=O)Nc2cc(C)on2)cc1 (stereo unspecified)
  6	i	0.91	i	45	79	-3.9
O=c1cnc2ccccc2n1CC1CCCCC1
  -11	i	0.9	60	99	101	-2.4
Cc1cc(C)n(CC(C)NCc2cn[nH]c2-c2cccc3ccccc23)n1 (stereo unspecified)
  3	i	0.99	·	·	103	·
O=C(C1CCCN(S(=O)(=O)c2cccc3cccnc23)C1)N1CCc2ccccc21 (stereo unspecified)
  5	i	1.3	·	·	107	-1.4
Cc1ccc(C2CC2C(=O)NNC(=S)Nc2cccc(Cl)c2)cc1 (stereo unspecified)
  -2	i	0.96	23	125	100	-1.4
Cc1ccc(NC(=O)CSc2nnc(CN3CCOCC3)n2-c2ccccc2)cc1
  0	i	0.78	-48	120	98	-0.6

# (cont.)
# Order of values: PKD1 inh	HSV replic up	HSV replic up primary fold	Insulin prom inh	Insulin prom inh cell count	RGS16-Gao	GALR2 agonist
CCc1ccc(OCC(=O)NC(C)C)cc1
  1	i	0.94	·	·	103	·
Cc1ccc2c(n1)sc1c(N)ncnc12
  15	i	0.9	29	80	102	-1.4
COc1c(C)cc(C(=O)C2CCCN(C(=O)c3ccoc3)C2)cc1C (stereo unspecified)
  -3	i	0.87	·	·	97	·
CCOC(=O)Cc1cc(=O)n2[nH]cc(-c3cccc(Br)c3)c2n1
  5	i	1.2	·	·	104	·
CSc1nc(C)cc(Oc2ccc(OCC(N)=O)nn2)n1
  0	i	0.98	9	62	106	·
O=C(Nc1nc2ccc([N+](=O)[O-])cc2s1)c1c(F)cccc1F
  -6	i	1	·	·	103	·
CC(=O)c1c(C)[nH]c(C(=O)CSc2nc3ccccc3c(=O)n2CCCN2CCOCC2)c1C
  1	i	0.89	·	·	104	-3.0
CC(=O)Oc1ccc(C(C)=O)c2c1OCCO2
  5	i	0.65	6	116	106	9.7
CSc1nc2sccc2c(=O)[nH]1
  2	i	1	·	·	101	·
COc1ccc(SCc2noc(C(=O)NC(C)C)c2C(=O)O)cc1
  2	i	0.76	57	130	107	-2.5
COc1cc(NC(=O)COC(=O)CCc2cc(OC)c(OC)c(OC)c2)cc(OC)c1
  7	i	1.1	47	134	101	·
COc1ccc(NC(=O)CC23CC4CC(CC(C4)C2)C3)cn1
  -4	i	0.85	-27	54	111	·
COC(=O)c1cc(C(=O)NCCCN2CCOCC2)cc([N+](=O)[O-])c1
  1	i	0.83	·	·	101	·
CCOc1cc2[nH]c(=O)n(Cc3ccc(C(=O)NCCOC)cc3)c(=O)c2cc1OCC
  3	·	·	·	·	105	-1.2
COc1cc(OC)cc(-c2nc(-c3cc4cc(C)ccc4nc3OC)no2)c1
  8	i	0.98	·	·	105	-1.1

# (cont.)
# Order of values: PKD1 inh	HSV replic up	HSV replic up primary fold	Insulin prom inh	Insulin prom inh cell count	RGS16-Gao	GALR2 agonist
Cc1cc(C)c2c(N=NN(C)C)[nH]nc2n1
  -16	i	1.1	-14	100	101	-3.2
CCO[C@H]1OC(C(=O)N2CCN(Cc3ccc4c(c3)OCO4)CC2)=C[C@@H](C2CCCCC2)[C@@H]1CCCO
  6	i	1	·	·	100	·
Cc1ccc(S(=O)(=O)NCC(=O)OCN2C(=O)c3ccccc3C2=O)cc1
  -6	i	0.98	43	95	91	-3.2
COc1ccc(/C=C(\NC(=O)c2cccs2)C(=O)NCc2ccco2)cc1OC
  ·	i	0.98	·	·	76	·
COc1ccccc1/C=N/NC(=O)c1ccc(CN2C(=O)c3cccc4cccc2c34)cc1
  ·	i	0.92	·	·	105	·
O=C1c2ccccc2C(=O)N1CCCN1CCN(CCCN2C(=O)c3ccccc3C2=O)CC1
  -3	·	·	-380	94	·	-1.7
N#C/C(=C(/O)CSc1ncn[nH]1)c1nc2ccccc2[nH]1
  5	i	1.1	-95	99	92	·
C=CCNC(=O)c1ccc(-c2nc(-c3ccc(Cl)cc3Cl)cs2)cc1
  -1	i	0.95	-23	101	102	-2.1
CCN(CC)S(=O)(=O)c1ccc(Oc2cccc(C(C)=O)c2)nc1
  0	i	0.91	-71	158	78	-2.8
CC(=O)Oc1cccc(N2C(=O)C3C4C=CC(C4=C(C)C)C3C2=O)c1 (stereo unspecified)
  2	i	0.98	23	99	100	-1.2
CCN(C(=N)N=C(N)N)c1ccccc1
  4	i	1	8	87	103	·
